Screening data from PubChem BioAssay.
HNF4A DNA FP: change in binding of human HNF4A to DNA, primary screen, biochemical, fluorescence polarization, FITC-DNA | AID 1224865, 2016 | 360,000 compounds, 0.3% hits | activity change, % at 10 µM | Hepatocyte nuclear factor 4-alpha (Homo sapiens), P41235 | 1 h; in the data active = activity change above about 30%, passing the limit was not always enough;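 note: controls were the assay level and a saturating level of protein; the project sought stronger binding though the title names inhibitors; some compounds called inactive have numbers as strong as hits; positive values seem to mean higher polarization but the record does not say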
Target sequence (P41235 whole entry, looked up): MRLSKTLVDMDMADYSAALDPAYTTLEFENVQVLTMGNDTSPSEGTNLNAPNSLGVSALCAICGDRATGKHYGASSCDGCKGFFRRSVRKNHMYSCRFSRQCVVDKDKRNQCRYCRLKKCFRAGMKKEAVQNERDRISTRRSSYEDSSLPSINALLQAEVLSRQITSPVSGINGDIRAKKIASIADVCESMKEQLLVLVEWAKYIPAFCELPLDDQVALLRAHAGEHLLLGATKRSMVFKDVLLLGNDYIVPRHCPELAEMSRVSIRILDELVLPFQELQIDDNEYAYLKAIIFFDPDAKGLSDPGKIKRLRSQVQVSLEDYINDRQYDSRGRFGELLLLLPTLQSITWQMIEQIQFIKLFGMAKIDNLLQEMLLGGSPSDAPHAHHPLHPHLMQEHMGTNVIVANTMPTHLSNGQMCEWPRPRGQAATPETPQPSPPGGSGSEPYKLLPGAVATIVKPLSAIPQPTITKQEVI
Active calls of the source: *. Only part of the results is shown (hit frequency here may not be typical).

compound	HNF4A DNA FP
CCCCN(C)C(=O)c1ccc(Nc2nc(C(N)COCc3ccccc3)cs2)nc1 (stereo not given)	10.8
COC(=O)[C@]12CCCCC=C1N(CCC1=CCCCC1)C(=O)[C@H](CC(=O)N1CCSCC1)C2	-3.6
OC[C@@H]1CN(Cc2ccco2)C[C@H](n2cnc3c(N4CCN(c5ccccc5)CC4)ncnc32)O1	-0.6
Cc1cn([C@H]2C[C@H](O)[C@@H](/C=C/C(=O)NCc3cccc4ccccc34)O2)c(=O)[nH]c1=O	-3.0
CCOC(=O)[C@]12CCCC=C1N(Cc1ccc3c(c1)OCO3)C(=O)[C@H](CC(=O)NCc1ccc(C)o1)C2	3.7
CCCc1ccc2c(C(F)(F)F)cc(C(F)(F)F)cc2n1	-0.2
CC(O)(c1ccc(F)c(F)c1)c1nc(-c2ccncc2)cs1 (stereo not given)	-1.8
O=C(c1ccccn1)N(Cc1ccco1)C1(C(=O)Nc2ccc(Br)cc2)CCCCC1	-4.6
CCN(c1ccccc1)S(=O)(=O)c1cccc(C(=O)Nc2cccc(C)n2)c1	2.9
COc1ccc(OC)c(CN2C(=O)CN(S(C)(=O)=O)CC2(C)C(=O)Nc2c(C)cccc2C)c1 (stereo not given)	6.8
N#Cc1ccc(S(=O)(=O)N2CCCCC2c2cc(C(=O)NCc3ccccc3)no2)cc1 (stereo not given)	4.8
COc1ccc2c(c1)CCC(=O)[C@H](O)C[C@H](c1ccccc1)OC2=O	1.3
O=C(Cn1cc(-c2ccccn2)nn1)NS(=O)(=O)c1cccc(OC(F)F)c1	-2.5
CCCNC(=O)C1(C)CCCN(Cc2ccccc2F)C1 (stereo not given)	3.8
CS(=O)(=O)N1CCCCC1c1cc(C(=O)NCc2ccc(Cl)c(Cl)c2)no1 (stereo not given)	0.6
COC(=O)[C@]12CCCCC=C1N(Cc1ccc3c(c1)OCO3)C(=O)[C@H](CC(=O)N1CCN(C(=O)C3CC3)CC1)C2	-4.5
COCCOC(=O)N1CCCCC1c1cc(C(=O)Nc2cccc3c2CCCC3)no1 (stereo not given)	0.4
c1ccc2c(c1)COc1c3ncccc3nn1-2	-0.1
C[C@@H]1CN([C@@H](C)CO)C(=O)CCCn2cc(nn2)CO[C@H]1CN(C)S(=O)(=O)c1ccccc1C#N	4.1
COc1ccccc1NC(=O)Nc1nnc([C@H]2C[C@H](O)[C@@H](CO)O2)s1	0.7
COc1ccc(-c2cnc3cccnn23)cn1	-1.6
Cc1cccc(COC[C@H](Cc2ccccc2)N2CCN(C(=O)c3ccc(C(F)(F)F)cc3)CCC2=O)c1	0.8
CN(Cc1ccccc1)C(=O)c1ccc(Nc2nc(C(N)Cc3ccccc3)cs2)nc1 (stereo not given)	-0.3
CN(C)CCN1CCN(C2CN(Cc3cn(Cc4cccc(C(F)(F)F)c4)nn3)S(=O)(=O)C2)CC1 (stereo not given)	6.5
O=C(Nc1ccc(F)cc1)Nc1nnc([C@@H]2C[C@H](O)[C@@H](CO)O2)s1	-0.1
Cc1cnc(C)c(Nc2nc(C(N)Cc3ccccc3)cs2)n1 (stereo not given)	3.8
CC(O)(c1cccnc1)c1nc(-c2cc(F)cc(F)c2)cs1 (stereo not given)	1.7
CCCCNC(=O)C1(C)CCC(=O)N1c1cc(C(C)(C)C)nn1C (stereo not given)	0.4
Cc1cccc(NC(=O)Nc2nnc([C@@H]3C[C@H](O)[C@@H](CO)O3)s2)c1	0.8
Cc1cc2oc(=O)cc(CN(Cc3ccccc3)Cc3ccccc3)c2cc1Cl	0.2
Cc1ccc(CN2CC(N3CCCCC3)CS2(=O)=O)cc1 (stereo not given)	0.3
COCCNc1nc2cc(-c3ccsc3)sc2c(=O)n1C	5.4
Cc1ccc(CN2C(=O)C(C)Sc3ccc(C#N)cc32)cc1 (stereo not given)	3.5
CN(C)c1ccc(CNC(=O)C2(C)Cc3c(-c4ccc5c(c4)OCO5)ccnc3O2)cc1 (stereo not given)	5.2
COC(=O)c1ccc(Cn2c(C)c(C(=O)Nc3cccc(Oc4ccccc4)c3)sc2=O)o1	-1.2
CC(C)NC(=O)C1(C)CCCN1C(=O)c1cc(C#N)cs1 (stereo not given)	3.1
O=C1NC[C@H](CCCCN2C[C@H](Cc3ccc(O)cc3)N(CCc3ccccc3)C(=O)C2=O)N(Cc2ccccc2)C1=O	-1.0
N#Cc1cccnc1N1CCN(C(c2ccnc3ccccc23)c2nnnn2-c2ccc3c(c2)OCCO3)CC1 (stereo not given)	-1.7
CCc1nc2c(OCC(=O)C(C)(C)C)cccn2c1N(C)C(=O)c1cccs1	2.5
O=C(NCc1ccc(Cl)nc1)c1ccc2sc([C@@H]3O[C@H](CO)[C@H](O)[C@H](O)[C@H]3O)nc2c1	-2.2
CCCCc1c(-c2ccccc2Br)ncn1CCc1ccccc1OC	3.7
O=C(COC(=O)COc1ccc(Cl)cc1)Nc1cccnc1Cl	-3.8
COc1ccc(S(=O)(=O)N(C)C[C@@H]2OCc3cn(nn3)CCCC(=O)N([C@H](C)CO)C[C@H]2C)cc1	0.1
O=c1ncccn1C1OC(CO)C(O)C1O (stereo not given)	-0.3
CC1(C(=O)Nc2ccc3c(c2)OCCO3)CCN1C(=O)C/C=C/c1ccccc1 (stereo not given)	-0.8
O=C(NCc1ccc(F)cc1)c1cc(C2CCCN(C(=O)c3cccs3)C2)on1 (stereo not given)	1.2
O=C(NCC[C@@H]1CC[C@@H](NS(=O)(=O)c2ccccc2)[C@@H](CO)O1)c1cc(Cl)cc(Cl)c1	2.5
CSc1ccc(CN2CCC2(C)C(=O)Nc2ccc(C)c(O)c2)cc1 (stereo not given)	0.8
CC(O)(c1ccc(F)c(F)c1)c1nc(-c2cccc(C(=O)O)c2)cs1 (stereo not given)	0.8
COCCN1C(=O)CCC1(C)C(=O)Nc1c(C)cccc1C (stereo not given)	1.3
C[C@H](NC(=O)C[C@@H]1CC[C@H]2[C@@H](COC[C@H](O)CN2Cc2ccc(C(F)(F)F)cc2)O1)c1ccccc1	-0.3
COC(=O)C[C@@H]1C=C[C@@H](NS(=O)(=O)c2ccc(OC)cc2)[C@@H](CO)O1	1.9
COc1ccc(Cc2c(-c3ccco3)nc3ccc(Cl)cn23)c(C)c1	-17.4
N#Cc1ccc(S(=O)(=O)N2CCCCC2c2cc(C(=O)N3CCOCC3)no2)cc1 (stereo not given)	-2.3
CCOC1=C2CN(S(=O)(=O)c3ccc(C)cc3)[C@H](c3ccccc3)C[C@@H]2N(S(=O)(=O)c2ccccc2C)[C@H](c2ccccc2)C1	-2.0
FC(F)(F)c1ccccc1Cc1c(-c2ccc(Cl)cc2)nc2ccc(Cl)cn12	4.7
CCc1nc2c(OCc3cccc(OC)c3)cccn2c1N(C)C(=O)c1ccc(OC)cc1	5.7
C[C@@H]1CN([C@@H](C)CO)C(=O)CCCn2nncc2CO[C@H]1CN(C)Cc1ccc2cccnc2c1	-2.1
O=C(O)c1ccc(CN2C[C@@H](CO)O[C@@H](n3cnc4c(NCc5ccco5)ncnc43)C2)cc1	0.4
C#CCNC(=O)C[C@@H]1C[C@@]2(C(=O)OCC)CCC=C2N(Cc2ccc(Cl)cc2Cl)C1=O	5.3

As entered above:
Value for `CC1(C(=O)Nc2ccc3c(c2)OCCO3)CCN1C(=O)C/C=C/c1ccccc1` (stereo not given) in HNF4A DNA FP: -0.8
Value for `Cc1ccc(CN2C(=O)C(C)Sc3ccc(C#N)cc32)cc1` (stereo not given) in HNF4A DNA FP: 3.5
Value for `O=C(COC(=O)COc1ccc(Cl)cc1)Nc1cccnc1Cl` in HNF4A DNA FP: -3.8
Value for `COC(=O)C[C@@H]1C=C[C@@H](NS(=O)(=O)c2ccc(OC)cc2)[C@@H](CO)O1` in HNF4A DNA FP: 1.9
Value for `CCCCc1c(-c2ccccc2Br)ncn1CCc1ccccc1OC` in HNF4A DNA FP: 3.7
Value for `COC(=O)c1ccc(Cn2c(C)c(C(=O)Nc3cccc(Oc4ccccc4)c3)sc2=O)o1` in HNF4A DNA FP: -1.2
Value for `COCCN1C(=O)CCC1(C)C(=O)Nc1c(C)cccc1C` (stereo not given) in HNF4A DNA FP: 1.3

Next structures follow.
compound	HNF4A DNA FP
COc1ccc(-c2coc3c(C(=O)NCc4ccc(C(F)(F)F)cc4)cccc23)c(C)c1	-2.8
OC(c1ccccc1)c1nc(-c2cccc(F)c2)cs1 (stereo not given)	-2.5
Cc1cc(C)n2c(Nc3ccc4c(c3)OCCO4)c(CC(C)C)nc2n1	0.4
COCCN1C[C@@H](CO)O[C@@H](n2cnc3c(NC4CCCC4)ncnc32)C1	-1.8
Cc1ccc(OCCN2CCC2(C)C(=O)NCc2ccc(C(F)(F)F)cc2)cc1 (stereo not given)	2.3
COc1cccc(OC)c1OCCN1CCC(C(=O)NC(c2ccccc2)c2ncccc2C)CC1 (stereo not given)	-2.4
O=C(NCc1ccccc1)c1cc(C2CCCCN2S(=O)(=O)Cc2ccccc2)on1 (stereo not given)	0.1
Cc1ccc(-c2csc(C(O)c3ccc(F)c(F)c3)n2)cc1C (stereo not given)	4.0
CSc1ccc(CNC(=O)C2(C)CCCN(C(C)=O)C2)cc1 (stereo not given)	-4.3
CC1(C(=O)NS(=O)(=O)Cc2cccc(Cl)c2)CCN1C(=O)c1cccc(F)c1 (stereo not given)	-9.4
Cn1c(=O)c2cc(NC(=O)Nc3ccccc3)ccc2n1Cc1ccccc1	0.2
CC(C)(C)c1ccc(S(=O)(=O)NC(=O)C2(C)CCN2C(=O)C2CC2)cc1 (stereo not given)	-0.9
COCc1cccc(-c2csc(C(O)c3ccc(F)cc3)n2)c1 (stereo not given)	3.3
CCCNC(=O)C[C@@H]1CC[C@H]2NC[C@H](O)COC[C@@H]2O1	-1.5
CC1(C(=O)Nc2ccc3c(c2)OCCO3)CN(S(C)(=O)=O)CC(=O)N1CCc1ccccc1 (stereo not given)	2.5
COc1ccc(CC(N)c2csc(NC(=O)c3ccccc3)n2)cc1 (stereo not given)	5.6
COc1cccc(CN(C)C(=O)CC[C@H]2O[C@@H](n3ccc(=O)[nH]c3=O)[C@H](O)[C@@H]2O)c1	-1.1
Cc1csc(-c2cc(C(=O)NCc3ccc(F)cc3)n[nH]2)c1	-2.5
Cc1nccn1CCC(=O)NC1CCCc2c1cnn2-c1ccc(C(C)(C)C)cc1 (stereo not given)	5.8
COc1ccc(Cl)cc1-c1cc(C(=O)Nc2ccc(C)c(NS(C)(=O)=O)c2)[nH]n1	-3.3
COCC(=O)N[C@H]1C=C[C@@H](CC(=O)OC)O[C@@H]1CO	2.6
CCCCn1c(SCC(=O)NC2CC2)nc2cc(C(=O)OC)ccc2c1=O	4.4
CCCNC(=O)C1(C)CCCN(C(=O)c2ccccc2F)C1 (stereo not given)	-1.0
COc1cc(CNc2ncnc3c2ncn3[C@H]2CN(CCc3ccccc3)C[C@@H](CO)O2)cc(OC)c1OC	-0.4
CCOC(=O)[C@]12CCC=C1N(Cc1ccco1)C(=O)[C@H](CC(=O)NCc1ccccc1)C2	-1.5
CC(C)(C)c1ccc(S(=O)(=O)NC(=O)C2(C)CCN2C(=O)Cc2cccc3ccccc23)cc1 (stereo not given)	1.4
O=C(NCc1ccc(F)cc1)c1cc(C2CCCN(C(=O)CCCc3ccccc3)C2)on1 (stereo not given)	-0.3
O=C(OC1CC2CC1[C@H]1CCCCN1C2=O)N1CCC(c2ccccc2)CC1 (stereo not given in full)	-0.8
Cc1c(Cl)cnc(NC(=O)COC(=O)c2cccc(S(=O)(=O)N3CCOCC3)c2)c1Cl	2.3
O=S1(=O)CC(N2CCCC2)CN1Cc1ccc(F)cc1 (stereo not given)	-1.1

Rewritten field by field: part of the list above.
COc1ccc(CC(N)c2csc(NC(=O)c3ccccc3)n2)cc1 (stereo not given)
- HNF4A DNA FP = 5.6

COc1cccc(CN(C)C(=O)CC[C@H]2O[C@@H](n3ccc(=O)[nH]c3=O)[C@H](O)[C@@H]2O)c1
- HNF4A DNA FP = -1.1

Cc1csc(-c2cc(C(=O)NCc3ccc(F)cc3)n[nH]2)c1
- HNF4A DNA FP = -2.5

Going on with the list:
compound	HNF4A DNA FP
CCCCc1ccc(S(=O)(=O)NC(=O)C2(C)CCN2C(=O)CC2CC2)cc1 (stereo not given)	6.0
CC1(C(=O)NS(=O)(=O)c2ccccc2Cl)CCN1C(=O)c1cccc2ccccc12 (stereo not given)	-0.1
COc1ccc(C(O)c2nc(-c3cccc(C(C)C)c3)cs2)cc1 (stereo not given)	1.9
CCc1nc2cc(NC(=O)C3(C)CCCN(C(C)=O)C3)ccc2o1 (stereo not given)	0.4
COc1ccc(CN2CCC(C)(Oc3cccc(F)c3)C2)c2ccccc12 (stereo not given)	4.3
COC(=O)[C@]12CCCCC=C1N(Cc1ccc3c(c1)OCO3)C(=O)[C@H](CC(=O)N1CCSCC1)C2	-0.2
CC(C)Oc1cc(F)ccc1-c1cc(C(=O)NCc2ccccn2)[nH]n1	4.8
O=C1NC[C@H](Cc2ccc(O)cc2)N(CCc2cc(C(F)(F)F)cc(C(F)(F)F)c2)C1=O	0.3
FC(F)(F)c1ccc(-c2cccc3c2C2CC3CCN2Cc2ccc3c(c2)OCO3)cc1 (stereo not given)	5.2
Cc1ccc(F)c(S(=O)(=O)NC(=O)C2(C)CCN2C(=O)Cc2cccs2)c1 (stereo not given)	-0.3
C[C@H](CO)N1C[C@H](C)[C@H](CN(C)C(=O)Nc2ccc(F)cc2)OCc2cnnn2CCCC1=O	-3.1
O=C(/C=C/[C@H]1O[C@@H](n2cnc3c(NC(=O)c4ccccc4)ncnc32)[C@H](O)[C@@H]1O)NCc1ccccc1	-1.3
C=Cc1ccc(Cn2c(C)c(C(=O)NCCC#N)sc2=O)cc1	-3.7
Cc1ccc(CNC(=O)c2ccc(S(=O)(=O)N3CCCCCC3)cc2)cc1	3.7
COc1ccccc1OCCSc1nc2ccccc2n1CC(=O)O	4.6
OC[C@@H]1CN(C2CCCC2)C[C@H](n2cnc3c(NC4CCC4)ncnc32)O1	-8.1
CCc1nc2ccc(C(=O)NCCCN3CCCC3=O)cn2c1N(C)CCC(C)C	-1.6
CN(C)c1nc(N)nc(CSc2nnnn2-c2ccc(Cl)cc2)n1	-3.8
